Source: PubChem
D2 agonist: activates the human D2 dopamine receptor | DiscoveRx PathHunter D2 beta-arrestin, luminescence, 90 min; 100% = 57 uM dopamine signal | 360,000 compounds, 0.084% hits | AID 624465 | activation, % (concentration not given with the values); in the data active = activation above about 40%; inconclusive = about 15% to 40%; inactive = below about 15%; also: the text of the record calls up to 30% inactive
Target sequence (P14416 whole entry, looked up): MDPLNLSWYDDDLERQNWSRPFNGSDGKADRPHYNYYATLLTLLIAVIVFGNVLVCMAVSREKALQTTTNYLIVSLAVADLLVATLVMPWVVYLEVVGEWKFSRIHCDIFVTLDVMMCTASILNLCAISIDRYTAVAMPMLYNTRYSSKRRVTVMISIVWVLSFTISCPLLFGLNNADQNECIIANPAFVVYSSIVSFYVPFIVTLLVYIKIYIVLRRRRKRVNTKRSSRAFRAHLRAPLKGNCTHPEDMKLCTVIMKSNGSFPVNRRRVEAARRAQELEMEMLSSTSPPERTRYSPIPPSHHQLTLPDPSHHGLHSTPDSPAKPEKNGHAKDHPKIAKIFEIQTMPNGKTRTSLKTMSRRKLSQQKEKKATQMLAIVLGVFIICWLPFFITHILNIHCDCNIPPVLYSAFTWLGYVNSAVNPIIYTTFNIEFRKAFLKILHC
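DiscoveRx PathHunter D2 beta-arrestin cells (2,100/well) attached overnight, then compound-stimulated 90 min at 37 C in HBSS/10 mM HEPES/0.1% Tween-20 buffer; beta-galactosidase complementation read by luminescence after 1 h at ambient temperature. Dopamine 57 uM final (EC100) as control.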
gsp agonist: gsp mutant agonism | Potency, µM (series often up to 76.9 µM), inactives show top-dose activation (cAMP increase), hits mostly activators | 340,000 compounds, 0.13% hits | gsp mutant cells, cAMP HTRF, 30 min; control for the full effect not named in the record; active = well fitted activation curve with a large enough effect; inconclusive = small, poorly fitted or top-dose-only effect, or another doubt; inactive = no such curve, though single readings can be large or run the other way; cell line not stated here;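 also: phosphodiesterase inhibitor Ro 20-1724 added with compounds to block cAMP breakdown; potency is read from the fitted curve at half-maximal effect; nearly all actives have a fitted effect of over 60% in size; about a fifth of the inactives were tested at one dose only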
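Cells stably selected in G418 were plated at 2000/well, grown 16-24 hr, then given compounds in DMSO with the PDE inhibitor […] (300 uM solution added) for 30 min at 37C; cAMP was read by HTRF.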
gsp antagonist: antagonists of gsp mutant (McCune-Albright syndrome); gsp-mutant cells, cAMP HTRF, 30 min; control for the full effect not named in the record; Potency, µM (titrated, usually from 76.9 µM), for the others: top-dose activity change, negative = inhibition, actives largely listed as inhibitors; 340,000 compounds, 0.4% hits; active = falling curve of any shape with a large fitted effect; inconclusive = falling curve, mostly with a smaller effect; inactive = flat or rising curve; cell line not stated here;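 also: intracellular cAMP measured with PDE inhibitor Ro 20-1724 present during compound exposure; potency is read from the fitted curve at half-maximal effect; % is scaled to controls: 0 for no effect and ±100 for the full control effect; nearly all actives have a fitted effect of over 65% in size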
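Cells, 2000/well, grown 16–24 h in DMEM 10% FBS with 0.5 mg/ml G418, then compounds plus […] (300 uM addition stock), 30 min at 37C. cAMP read by HTRF (cAMP-d2 and anti-cAMP antibody-K in lysis buffer) after 30 min RT.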
CtBP-E1A blk: blocks the CtBP interaction with E1A | AlphaScreen GST-E1A/His-CtBP binding, 1536-well; stronger effect = lower value; control for the full effect not named in the record | activity change, % (concentration not given with the values) | 340,000 compounds, 0.49% hits | AID 651724; in the data active means activity change below about -65%; inconclusive means about -30% to -65%; inactive means above about -30%; also: % is scaled to controls: 0 for no effect and ±100 for the full control effect
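AlphaScreen with 125 nM GST-E1A and 125 nM His-CtBP (5X stocks) in Tris pH 8.0, 300 mM NaCl, BSA, Tween 20, TCEP. Compounds preincubated 2 h at 37 deg C, then glutathione donor/nickel acceptor beads added for 1 h at 37 deg C in dark.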
D2 PAM: positive allosteric modulators of human D2 dopamine receptor | 360,000 compounds, 0.23% hits | DiscoveRx D2 beta-arrestin cells, luminescence, 90 min; 100% = 57 uM dopamine signal | AID 624464 | potentiation, % (concentration not given with the values) | P14416; active = potentiation of 50% or more; inconclusive = 30% to 50%; inactive = 30% or less;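 also: tested on top of an EC20 dose of dopamine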
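PathHunter beta-arrestin assay in DiscoveRx D2 cells. Compounds were added with an EC20 of dopamine (50 nM final) for 90 min at 37 deg C. Luminescence was read 1 h after detection reagent, with 57 uM dopamine as the EC100 control.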
Six1-Eya2 inh: inhibitors of human Six1/Eya2 interaction; AlphaScreen GST-Six1/His-Eya2 binding, biochemical; stronger effect = lower value; control for the full effect not named in the record; AID 651725; 360,000 compounds, 0.56% hits; activity change, % (no concentration beside the values); Q15475+O00167; in the data active = activity change below about -65%; inconclusive = about -30% to -65%; inactive = above about -30%; also: % is scaled to controls: 0 for no effect and ±100 for the full control effect
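Six1/Eya2 binding was read as AlphaScreen signal after compounds were pinned into GST-Six1 plus His-tagged Eya2 (5X stock 250/500 nM) in pH 8.0 Tris/NaCl/TCEP buffer, beads added, then incubated 1 h, 37 C, dark.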
Starred values were filed as active, the others as inactive; ? = inconclusive; / = no result given; [ ] = another dose, or the depositor's remark.

No.	smiles	Six1-Eya2 inh	D2 PAM	gsp antagonist	gsp agonist	CtBP-E1A blk	D2 agonist
1	COc1cccc(NC(=O)c2cc(-c3ccc(OC)cc3OC)nc3ccccc23)c1	-1	2	-5%	9%	/	3.4
2	Cc1cccc(-n2c(C)nc3cc(C(=O)NCC4CCCO4)ccc32)c1 (stereo not drawn)	-4	-6	4%	-16%	-3	3.6
3	CCC(=O)N1N=C(c2ccc(NS(C)(=O)=O)cc2)CC1c1ccc(C)cc1 (stereo not drawn)	0	5	-28%	8%	5	-1.1
4	COc1cc(CN2CCN(Cc3ccc(C)cc3)C(CCO)C2)cc(OC)c1O (stereo not drawn)	3	-16	9%	51%[15.4 µM]	0	2.6
5	O=C(OCC(=O)N1CCc2ccccc21)c1nc(Cl)ccc1Cl	-2	-22	-27%	-21%	7	1.9
6	CN(C)/C=C1/C(=O)Nc2ccccc21	1	1	0%	-45%[inhibitor]	7	0.5
7	NC(=O)c1ccsc1NC(=O)COC(=O)/C=C/c1ccc([N+](=O)[O-])cc1	-7	5	5%	3%[15.4 µM]	-17	-2.9
8	CCN(C(=O)c1cn(C)c(=O)c2cc(OC)c(OC)cc12)c1cc(C)ccc1C	0	?	-6%	-2%	2	-0.7
9	CN(C)S(=O)(=O)c1cccc(NC(=S)NC(=O)C2CCCCC2)c1	-3	-18	-14%	-13%	0	0.9
10	O=C(NC1CCN(C(=O)Nc2cccc(Cl)c2)CC1)c1ccccc1	-1	-3	-19%	3%	4	3.1
11	CCNc1nc(NCC)n2c(SC(C)C(=O)c3ccc(C)cc3)nnc2n1 (stereo not drawn)	7	-18	-6%	8%	6	-3.9
12	Cc1ccc(/C=C2\C(=N)N3N=C(CC(=O)N4CCOCC4)SC3=NC2=O)o1	8	-11	-24%	7%	0	-3.9
13	CCc1ccc(CN(C)C(=O)C2=CC=CN3CCS(=O)(=O)N=C23)cc1	2	-66	10%	10%[15.4 µM]	9	-3.3
14	COc1cc(OC)nc(Oc2cc(/C=N/O)ccc2OC)n1	5	-2	9%	4%	/	2.8
15	COc1ccccc1NC(=O)C(NC(=O)c1ccc(C)cc1)c1ccccc1 (stereo not drawn)	12	-3	-5%	-66%[inhibitor]	0	-0.9
16	CCn1c(-c2cc(C3CC3)nc3ccccc23)n[nH]c1=S	-1	-1	-15%	1%	1	0.7
17	FC(F)(F)c1cnc(/C=C/Nc2ccccc2Cl)c(Cl)c1	4	-7	3%	-59%[inhibitor]	12	-3.5
18	CCCCOc1ccc(C2(C)NC(=O)NC2=O)cc1 (stereo not drawn)	7	3	7%	16%	1	5.2
19	O=C(Nc1ccccn1)c1cccs1	3	-2	18%	11%	3	-2.5
20	Cc1ccc(-n2nc3c(c2NC(=O)c2ccc4c(c2)OCO4)CSC3)cc1	10	7	10%	9%	-2	-4.3
21	Cc1cccc(COc2ccc(S(=O)(=O)N3CCOCC3)cc2[N+](=O)[O-])c1	-17	-22	3%	-2%	-6	-5.4
22	COc1ccccc1NC(=S)NNC(=O)c1ccccc1	8	-18	-14%	-8%	-5	-6.1
23	COc1ccc(NS(=O)(=O)c2ccc(NC(=S)NC(=O)/C=C/c3ccccc3)cc2)nn1	-17	9	-5%	7%	-1	-4.1
24	CN1C(=O)[C@H]2[C@@H](c3ccc(C(F)(F)F)cc3)N[C@]3(CCCN(Cc4ccc(Br)cc4)C3=O)[C@H]2C1=O	5	4	/	?	7	2.5
25	COc1ccc(/C=C/C(=O)NCCC(=O)N2CCCN(C)CC2)cc1	7	-2	-2%	2%	8	-3.9
26	Cc1cccc(NC(=S)N2CCC(NC(=O)c3ccco3)CC2)c1	6	-2	1%	-3%	2	-1.0
27	Cc1ccc(NC(=O)c2ccc3nc(N4CCOCC4)sc3c2)c(Cl)c1	3	-4	2%	?	3	8.5
28	Cc1ccc(C(=O)NCC(=O)OC(C)C(=O)NC2CCCc3ccccc32)cc1 (stereo not drawn)	1	-20	-9%	9%	-5	-5.6
29	O=C(CCS(=O)(=O)c1ccc(Br)cc1)N1CCN(c2ccccc2)CC1	-17	-8	-1%	-49%[inhibitor]	-1	-2.8
30	Cc1noc(C)c1S(=O)(=O)N1CCCCC1c1cc(C(=O)Nc2cccc3c2CCCC3)no1 (stereo not drawn)	3	-8	/	/	-18	-1.5
31	Cc1cccn2c(=O)c3cc(C(=O)NCC4CCCO4)c(=N)n(Cc4cccnc4)c3nc12 (stereo not drawn)	3	-7	-2%	36%[15.4 µM]	-1	-0.8
32	CCOC(=O)CNC(=O)CSc1nc(-c2cccc(C)c2)ns1	4	-6	-17%	-12%[15.4 µM]	5	-5.5
33	CCOC(=O)N1CCN(CCC(=O)Nc2ccc(C)c(Br)c2)CC1	-1	-31	2%	?	0	-0.3
34	CC1CCCCN1CCNC(=O)c1cc2c(-c3ccccc3F)nn(C)c2s1 (stereo not drawn)	?	-11	3%	-31%[inhibitor]	-28	3.2
35	O=C(C1=C[C@H](C2CCCCC2)C[C@H](OCc2ccc(CO)cc2)O1)N1CCN(Cc2ccc3c(c2)OCO3)CC1	-14	-20	-17%	/	-16	-3.4
36	COC(=O)C1=NNC2C(=O)N(c3ccc(C)cc3)C(=O)C12 (stereo not drawn)	9	-11	3%	0%	/	3.2
37	NC(=O)c1ccc(NC(=O)COC(=O)c2n[nH]c3ccccc23)cc1	-2	-12	8%	1%	/	-1.9
38	CCOc1ccc(S(=O)(=O)n2ccnc2)c2ccccc12	1	0	10%	-35%[inhibitor]	4	3.8
39	CSc1nnc(NC(=O)c2ccc(S(=O)(=O)N(C)C)cc2)s1	6	-7	5%	10%[15.4 µM]	2	-6.2
40	NC(=O)c1ccc(NC(=O)C2CC2)cc1	13	-5	4%	4%[15.4 µM]	-20	-4.3
41	O=C1C2C3C=CC(CO)(O3)C2C(=O)N1c1ccccc1-c1ccccc1 (stereo not drawn)	-8	-15	5%	11%	-10	-4.2
42	COc1ccc(NC(=O)N(C)C[C@H]2Oc3ccc(NC(=O)NC(C)C)cc3C(=O)N([C@H](C)CO)C[C@@H]2C)cc1	-6	-5	7%	/	-6	0.2
43	COC(=O)c1sc(NC(=O)CSc2nc3nc(C)cc(C)n3n2)c(C(=O)OC)c1C	7	0	-9%	-8%[15.4 µM]	29	-2.2
44	CCCCC(=O)Nc1nnc(-c2ccc(OC)cc2)s1	0	?	7%	0%	2	-0.1
45	CC(C)(C)c1nnc(NC(=O)C2CCN(c3ncccn3)CC2)s1	1	0	11%	?	5	-0.8
46	O=C(NC1CCCCC1)C(c1cccnc1)N(C(=O)c1csnn1)C1CCCC1 (stereo not drawn)	0	8	-2%	30%	5	-1.2
47	CCC(=O)c1cn(CC(=O)NCc2ccco2)c2ccccc12	5	-2	-4%	-48%[inhibitor]	2	-0.9
48	CSCCC(c1nnnn1C1CCCCC1)N1CCN(C/C=C/c2ccccc2)CC1 (stereo not drawn)	?	-10	/	/	-28	-2.4
49	COc1cc(NC(=O)CCS(=O)(=O)c2ccc3c(c2)oc(=O)n3C)cc(OC)c1OC	-2	-3	5%	17%	4	-1.4
50	COc1ccc(C(=O)NC(=S)N(CCC(C)C)c2c(N)n(Cc3ccccc3)c(=O)[nH]c2=O)cc1	-9	-10	-6%	-3%[15.4 µM]	-6	-7.4

Next section
No.	smiles	Six1-Eya2 inh	D2 PAM	gsp antagonist	gsp agonist	CtBP-E1A blk	D2 agonist
51	CCCc1nc2ccccc2c(NC(=O)CN(CC)CC)c1CC	1	-2	0%	-31%[inhibitor]	5	-2.0
52	Cc1cccc(C)c1NC(=O)CCCSc1nnnn1C	1	-8	9%	-33%[inhibitor]	1	-2.3
53	CCOCCn1c(SC(C)C(C)=O)nc2c1c(=O)[nH]c(=O)n2C (stereo not drawn)	-2	-13	0%	1%	/	-4.7
54	CCOC(=O)CSc1nnc(CSc2nc(C)cc(C)n2)n1Cc1ccco1	3	3	7%	-4%	-4	-0.8
55	CCC(C)c1ccc(NC(=S)NCc2cccs2)cc1 (stereo not drawn)	-6	-13	-4%	-9%	-2	-2.3
56	CCN(Cc1ccccc1)C(=O)CSc1nc(C)cc(C)c1C#N	5	-7	-17%	-35%[inhibitor]	1	-1.5
57	COc1ccc(Cn2c(=O)c3[nH]cnc3n(-c3ccc(C)cc3)c2=O)cc1	2	-1	2%	16%	/	1.6
58	C=CCn1c(-c2cccc(OCC)c2)n[nH]c1=S	2	-11	0%	?	0	3.7
59	Cc1cc(-c2nnc(CCC(=O)NCc3ccc(F)c(F)c3)o2)no1	0	-8	5%	24%	0	-3.7
60	Cc1ccc(CNC(=O)C2CCCN2C(=O)Nc2cccc(Cl)c2)cc1 (stereo not drawn)	-1	-1	-1%	-21%	5	-1.3
61	CCOC(=O)C1=CN(Cc2ccco2)S(=O)(=O)N(CC)C1c1ccc(C(F)(F)F)cc1 (stereo not drawn)	0	/	-10%	/	4	-1.0
62	O=C(COc1ccc2ccccc2c1Br)Nc1ncn[nH]1	-2	-4	6%	?	-8	-1.9
63	CC(C)CC(=O)NN1CCCCC1	3	-3	-2%	-33%[inhibitor]	7	-2.5
64	Cc1ccc2nc(-c3ccc(NS(=O)(=O)c4ccccc4)cc3)sc2c1	-11	1	-17%	-9%[15.4 µM]	-1	-0.3
65	CCCC(C)C(=O)Nc1ccc(Cl)cn1 (stereo not drawn)	6	23	4%	-13%	15	-3.0
66	CCn1c2ccccc2c2cc(/C=N/O)ccc21	3	-10	-15%	14%	/	-0.5
67	CC(C)(C)C1c2[nH]c3ccccc3c2CCN1CCCn1cccn1 (stereo not drawn)	0	-9	-1%	12%	-3	-1.9
68	N/C(CCN1CCOCC1)=N/O	3	-2	3%	-9%	2	-2.7
69	O=C(Nc1ncccc1O)c1ccc(C(=O)c2ccccc2)cc1	-12	-6	3%	12%[15.4 µM]	-2	-5.0
70	O=C(COc1ccc(Br)cc1CNC1CCCCC1)NCCc1ccccc1	-3	-14	-9%	-5%[15.4 µM]	1	-0.1
71	CCOC(=O)c1c(C)nc2ccccc2c1C	3	-1	7%	-4%	5	-3.1
72	Cc1c(NC(=O)Nc2cccc(Cl)c2)c(=O)n(-c2ccccc2)n1C	-2	-6	7%	?	4	0.0
73	COc1ccc([C@H]2CC(=O)C=C(c3cc4ccccc4s3)C2)cc1	-6	-8	-9%	18%	/	-2.8
74	COc1cc(-c2nnc(SCC(=O)N3CCCC3)o2)cc(OC)c1OC	6	-10	1%	?	3	-3.5
75	Cc1ccc(S(=O)(=O)Nc2ccc(-c3nnc(SCC#N)n3C)cc2)cc1	17	-6	-13%	28%	11	0.5
